# Source: PubChem (National Center for Advancing Translational Sciences (NCATS))
# Rango-impB inh – Rango-importin beta binding inhibition. Potency, µM (titrated, usually from 92.2 µM), for inactives: top-dose inhibition of complex formation. 340,000 tested, 0.031% active. AID 540263. Rango CFP/YFP FRET sensor + importin beta, 45 min. Q14974; active = rising FRET ratio curve, often small or poorly fitted; inconclusive = mostly compound fluorescence or quenching in the first reads; inactive = flat curves in all reads;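 further: potency means the concentration at half of the fitted maximal effect; 0% = DMSO wells and 100% = buffer wells lacking importin beta; nearly all actives have a fitted effect of over 15% in size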
# Target sequence (Q14974 whole entry, looked up): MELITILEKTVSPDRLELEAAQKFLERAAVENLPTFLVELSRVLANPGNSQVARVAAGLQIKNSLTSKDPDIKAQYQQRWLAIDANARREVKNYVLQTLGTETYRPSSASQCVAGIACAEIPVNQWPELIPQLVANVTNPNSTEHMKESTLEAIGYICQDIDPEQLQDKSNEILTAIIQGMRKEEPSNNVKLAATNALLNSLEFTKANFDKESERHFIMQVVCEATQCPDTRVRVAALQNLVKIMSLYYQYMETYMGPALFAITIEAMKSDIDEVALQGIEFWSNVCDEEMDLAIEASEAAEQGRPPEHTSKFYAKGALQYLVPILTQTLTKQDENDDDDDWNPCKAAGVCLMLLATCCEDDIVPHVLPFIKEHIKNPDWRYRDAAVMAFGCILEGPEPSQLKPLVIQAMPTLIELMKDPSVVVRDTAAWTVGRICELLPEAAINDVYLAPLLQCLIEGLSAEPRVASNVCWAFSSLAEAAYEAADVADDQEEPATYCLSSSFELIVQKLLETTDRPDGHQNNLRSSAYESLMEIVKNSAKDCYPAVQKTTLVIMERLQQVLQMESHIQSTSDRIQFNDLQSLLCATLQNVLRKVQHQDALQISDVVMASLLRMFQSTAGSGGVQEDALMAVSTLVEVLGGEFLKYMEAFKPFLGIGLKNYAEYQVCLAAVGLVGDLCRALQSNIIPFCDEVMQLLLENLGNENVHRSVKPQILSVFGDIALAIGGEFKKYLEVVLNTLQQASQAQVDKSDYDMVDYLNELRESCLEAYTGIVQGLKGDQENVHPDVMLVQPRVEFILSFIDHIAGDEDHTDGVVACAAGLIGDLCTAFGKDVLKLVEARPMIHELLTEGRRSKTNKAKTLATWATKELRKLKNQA
#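 FRET biosensor Rango (snurportin 1 IBB between N-terminal EYFP and C-terminal Cerulean), 50 nM in PBS/1 mM DTT/0.02% Tween-20/0.1% BSA, preincubated 5 min RT with compound; 0.125 microM importin beta added, 45 min RT, CFP/YFP FRET ratio read.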
# Rango dissoc inh – inhibition of RanGTP-driven Rango-importin beta dissociation. O95149+P62826. Biochemical FRET Rango-importin beta, RanGTP-induced dissociation. Potency, µM (doses to about 46.1 µM), inactives show top-dose activity change, negative = inhibition. 340,000 tested, 0.071% active. AID 540253; active means falling FRET ratio curve, often poorly fitted, with flat reads before Ran was added; inconclusive means other falling curves, or compound fluorescence or quenching; inactive means flat or rising ratio curve;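 further: potency means the concentration at half of the fitted maximal effect; % of control where 0% means no effect; nearly all actives have a fitted effect of over 45% in size; -100% = wells without RanGTP and RCC1; the record marks most hits as doubtful in a second field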
#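 Rango (0.1 uM)–importin beta (0.25 uM) complex; RanGTP-RCC1 trigger; 45 min RT; CFP/YFP FRET read.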
# miR-21 reporter – raises the signal of a miR-21 reporter; HeLa miR-21 FLuc reporter, luciferase, 48 h; Potency, µM (series often up to 38.3 µM), without a hit: at the highest dose reporter change, positive = more light; 340,000 tested, under 10 active; AID 2288; active = well fitted rising curve with a large enough effect; inconclusive = small, poorly fitted or top-dose-only effect; inactive = no such curve, though single readings can be large or run the other way;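 further: % of control where 0% means no effect; miR-21 action dims this reporter so a rising signal means less miR-21 action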
#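 Luminescence from a firefly luciferase reporter carrying a miR-21 binding site downstream, stably expressed under a CMV promoter in HeLa cells that make miR-21 endogenously, reports miRNA modulation after 48 h compound exposure up to approximately 40uM final.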
# GLA inh pH 4.5 – alpha-galactosidase A (human) inhibition, pH 4.5; 230,000 tested, under 10 active; activity change, negative = inhibition, % at 105 µM; P06280; purified enzyme, 4-MU-alpha-Gal fluorescence, pH 4.5; inconclusive = small, poorly fitted or top-dose-only inhibition, or a rising curve; inactive = flat fitted curve, though single readings scatter; no compound was filed as active;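 further: 0% = full activity with enzyme and -100% = basal without enzyme; dose as in the result columns while the protocol names 77 µM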
# Active calls of the source: *; ? = inconclusive; . = not tested or not shown; & = joins results of further samples; [ ] = dose if it differs, or a comment.
Rango-impB inh	Rango dissoc inh	miR-21 reporter	GLA inh pH 4.5	structure
-2.2%	-12%	0%	.	COC(=O)c1ccc(S(=O)(=O)N2CCc3ccccc3C2)cc1
2.9%	17%	.	.	CC1(NC(=O)CC(c2ccccc2)(c2ccccc2)c2ccccc2)CCN(Cc2ccc(-c3ccccc3)cc2)C1=O (stereo not drawn)
4.7%	-12%	-4%	1	CS/C(=N\N(C)C(N)=O)c1ccccc1
-0.4%	-1%	-1%	.	COc1ccc(N2CCN(CCNC(=O)Nc3ccc(C)cc3Cl)CC2)cc1
-0.2%	0%	-1%	0	CCOC(=O)c1c(-c2ccccc2Cl)csc1NC(=O)c1cc(S(=O)(=O)N2CCOCC2)ccc1C
1.4%	0%	-6%	14	Cc1ccc(S(=O)(=O)N(C)C)cc1NC(=O)c1n[nH]c(=O)c2ccccc12
?	?	-23%	12	Cc1nc2c(-c3ccc(Cl)cc3)cnn2c2c1CCC2
2.8%	12%	-16%	-8	Cc1ccc(Nc2nnc(SCC(=O)c3ccc(Br)s3)s2)c(C)c1
-0.2%	-9%	-1%	0	CCN(CC)C(=O)c1cncc(C(=O)N(CC)CC)c1-c1ccccc1
0.2%	1%	0%	.	COc1ccc(CN(C(=O)c2snc(C(N)=O)c2N)C(C(=O)NC2CCCC2)c2ccc(OC)c(OC)c2)cc1 (stereo not drawn)
-2.3%	47%	0%	9	O=C(COC(=O)CCc1c[nH]c2ccccc12)NC1CCS(=O)(=O)C1 (stereo not drawn)
-0.5%	1%	-4%	0	COc1ccc(S(=O)(=O)NCCN2CCNC2=O)cc1OC
-3.2%	3%	.	.	N#Cc1cccc(S(=O)(=O)NCC(=O)OCC(=O)NCc2ccccc2)c1
-0.2%	3%	2%	2	Cc1ccc(Cl)cc1NC(=O)Cn1cccc1
12%	0%	-1%[7.66 µM]	-4	CC(C)(C)C(=O)Nc1cc(C(F)(F)F)ccc1N1CCOCC1
0.0%	15%	-11%	.	COc1cc(/C=N/NC(=O)c2ccoc2C)ccc1OCCN1CCCCC1
?	?	?	.	COc1ccc2c(c1)N(C)/C(=C/c1cccc[n+]1C)S2
-3.4%	-13%	-23%	9	CS(=O)(=O)Nc1ccc(C(=O)Nc2ccccc2Cl)cc1
1.2%	0%	-1%	2	CCCOc1ccc(Cc2nn3c(=O)/c(=C/c4ccco4)sc3nc2=O)cc1
6.0%	-16%	.	.	CC(=O)Nc1cccc(C(=O)OCC(=O)c2ccc3c(c2)OCO3)c1
-0.7%	1%	1%	-4	NC(=S)C1COc2ccccc2O1 (stereo not drawn)
-1.7%	10%	-34%	-5	CC(C)(CO)Nc1ccc([N+](=O)[O-])cc1[N+](=O)[O-]
1.5%	-8%	-3%	-22	CCOC(=O)N1CCC(NC(=O)CCC(=O)N2CC(C)Oc3ccc(C)cc32)CC1 (stereo not drawn)
-3.7%	20%	1%	2	CCN1CCN(CCCNC(=O)CCc2nc(-c3ccc(OC)cc3)no2)CC1
-0.9%	5%	-15%	-2	CC(C)Oc1ccc(C(=O)NC(=S)Nc2ccc(Cl)c(C(=O)O)c2)cc1
6.2%	-10%	-63%	-6	CCS(=O)(=O)n1nc(-c2ccc(Cl)cc2)nc1SCc1ccccc1
-1.3%	11%	.	.	COc1cc(Cl)c(C)cc1NC(=O)COC(=O)C1=COCCO1
-0.6%	8%	-7%	-4	Cc1ccc(Cl)cc1NC(C#N)c1ccccc1 (stereo not drawn)
-2.9%	0%	1%	-3	O=C(O)C1CCCCC1C(=O)NC(c1ccccc1)c1ccccc1 (stereo not drawn)
?	?	5%	-1	Oc1ccccc1N=Cc1c(O)ccc2ccccc12
-0.9%	-12%	1%	.	COc1cccc(C(=S)N2CCCC2)c1OC
?	?	?	0	Cc1cccc2cc3c(nc12)SC(=NCC1CCCO1)N(Cc1ccco1)C3 (stereo not drawn)
-0.5%	-2%	-58%	3	COc1ccc(NC(=O)c2cccc(F)c2)cc1Cl
-4.8%	27%	-38%	2	O=C(NCc1ccco1)Nc1ccc(Br)cc1
4.2%	-9%	-10%	-6	Cc1cc(NCc2ccc(F)cc2Cl)n2nnnc2n1
-0.9%	-6%	-10%	6	Cn1c(=O)c2ncn(CC(=O)N/N=C/c3ccco3)c2n(C)c1=O
-1.1%	-11%	-2%	2	O=C(CN1CCCCCC1)Nc1cccc([N+](=O)[O-])c1
?	-5%	-3%	-10	CCCn1c(=O)c2ccccc2n2c(SCCOc3ccccc3)nnc12
5.9%	-4%	0%	-1	COc1ccc(S(=O)(=O)n2nc(C)cc2C)c(C)c1C
-0.2%	9%	-23%	-1	O=C(NCc1ccc2c(c1)OCO2)c1cccc(Cl)c1

# Complete entries, looked up by structure:
# `O=C(NCc1ccc2c(c1)OCO2)c1cccc(Cl)c1` in the list: Rango-impB inh = -0.2%; Rango dissoc inh = 9%; miR-21 reporter = -23%; GLA inh pH 4.5 = -1
# `CCCn1c(=O)c2ccccc2n2c(SCCOc3ccccc3)nnc12` in the list: Rango-impB inh = ?; Rango dissoc inh = -5%; miR-21 reporter = -3%; GLA inh pH 4.5 = -10

# Carrying on:
Rango-impB inh	Rango dissoc inh	miR-21 reporter	GLA inh pH 4.5	structure
-0.7%	-1%	-3%	-1	c1ccc2c(c1)c1ccccc1n1c(-c3ccc4c(c3)OCO4)nnc21
-5.9%	-2%	-1%	-1	O/N=C1/C2C3CC4C5C3C1C5C1(OCCO1)C42 (stereo not drawn)
1.8%	-8%	-31%	2	O=C1CSc2ccc(C(=O)NCCC3=CCCCC3)cc2N1
-7.7%	-7%	-12%	-7	COc1ccc(OC)c(NC(=O)C2CCCN2C(=O)OCc2ccccc2)c1 (stereo not drawn)
0.1%	-17%	.	.	Cc1cc(NC(=O)COC(=O)CNS(=O)(=O)c2c(F)cc(F)cc2Br)no1
-1.2%	0%	-64%	3	O=c1[nH]cnc2scc(-c3ccc(-c4ccccc4)cc3)c12
7.0%	-2%	28%	.	Cc1ccc(C)c(C(C)NC(=S)NCc2ccc(F)cc2)c1 (stereo not drawn)
1.9%	0%	-3%	2	CCn1c(SCc2ccc([N+](=O)[O-])cc2)nnc1C(C)NC(=O)c1ccc(C)cc1 (stereo not drawn)
-0.6%	-10%	-55%	-2	COc1ccc(-c2nc(-c3ccc(Br)o3)no2)cc1
-0.1%	0%	-35%	.	O=C(Nc1nc2ccccc2[nH]1)NC1CCCCC1
-4.7%	-10%	8%	-6	CCOc1ccc(CC(=O)N2CCN=C2SCc2ccc([N+](=O)[O-])cc2)cc1
-0.8%	6%	-7%	-2	CC(=O)c1ccc(NC(=O)/C(=C\c2cccs2)NC(=O)c2ccco2)cc1
-3.2%	-3%	-8%	-8	O=C(O)C1CC(c2ccc(F)cc2)=NO1 (stereo not drawn)
0.4%	-2%	0%	2	CCOC(=O)C1(Cc2ccccc2)CCCN(Cc2ccc(OCCO)cc2)C1 (stereo not drawn)
1.2%	-1%	1%	-5	CN(C)/C=C/C(=O)c1cnc2n(c1=O)CCS2
-0.4%	21%	-2%	1	CC(=O)c1cccc(NC(=O)NC(C)C2CCCO2)c1 (stereo not drawn)
-1.9%	21%	-2%	7	CCOc1ccc(N2C(=O)CN(C)C2=S)cc1
0.3%	20%	.	.	COc1cccc(CN(C)C(=O)c2ccc(C)c(S(=O)(=O)N3CCCCC3)c2)c1
3.5%	0%	-1%	1	Cc1ccc2c(c1)C(=O)OC1(O)C3C4C=CC(C4)C3C(=O)N21 (stereo not drawn)
0.2%	-3%	-22%	.	O=C(COc1ccccc1F)N1CCCc2ccccc21
-3.0%	-1%	-7%	2	O=C(/C=C/c1cccc(Br)c1)Nc1nn[nH]n1
3.2%	14%	4%	.	CCc1nnc(NC(=O)c2c(-c3ccccc3)noc2C)s1
1.3%	7%	1%	.	CC(=O)N1CCc2cc(S(=O)(=O)CCC(=O)N3CCN(c4ccccc4)CC3)ccc21
-1.1%	-9%	3%	.	CC(C)NC(=O)CCCN1C(=O)c2ccccc2Sc2ncccc21
?	-3%	-9%	-5	Cc1ccc(NC(=S)N2CCN(CCN3C(=O)c4cccc5cccc(c45)C3=O)CC2)cc1
1.9%	-6%	0%	-5	O=C(NC1CCCC1)C1CCCN1C(=O)Nc1ccccc1Cl (stereo not drawn)
-1.2%	-5%	0%	.	O=C(O)c1nn(CCOc2ccccc2F)c(=O)c2ccccc12
-2.1%	-14%	-40%	.	NS(=O)(=O)c1ccc2nc(NC(=O)C3=COCCO3)sc2c1
3.6%	-7%	.	.	O=C1CCC/C=C\C[C@@H](CC(=O)N(CCO)Cc2ccccc2)C(=O)N2CCC[C@H]2CO1
-4.9%	5%	-7%	-3	CC(=O)N1CCCc2cc(S(=O)(=O)Nc3ccc4c(c3)OCO4)ccc21
2.9%	-12%	?	4	CC(C)c1nnc(NC(=O)CCS(=O)(=O)c2nc(-c3cccs3)cc(C(F)(F)F)n2)s1
0.5%	15%	-17%	.	O=C(Cn1c(=O)cnc2ccccc21)N1CCCc2ccccc21
-4.3%	-20%	1%	.	CCOc1ccc(Cl)cc1S(=O)(=O)N1CCC(C(=O)NCc2ccncc2)CC1
-1.3%	0%	0%	.	CC1(C)Cc2ccccc2C(=NC(Cc2c[nH]c3ccccc23)C(=O)O)N1 (stereo not drawn)
1.0%	1%	-16%	-1	CCOC(=O)c1ccc(NC2Nc3cc(C)nn3S2)cc1 (stereo not drawn)
0.0%	-7%	1%	6	CC1(C)Cc2c(cnn2-c2ccccc2)-c2c1c1ccccc1n2CC(O)CBr (stereo not drawn)
4.4%	4%	-27%&-25%	.	Cc1ccc(F)cc1NC(=O)CCc1c(C)nn(-c2ccc(N3CCCCC3)nn2)c1C
3.7%	-11%	-3%	2	COCCn1c(=NC(=O)c2cccs2)sc2cc(NC(C)=O)ccc21
?	?	-4%	.	COCCNC(=S)N/N=C/c1c2ccccc2cc2ccccc12
0.3%	3%	-67%	3	C=CCNC(=S)NNC(=O)COc1ccc2cc(Br)ccc2c1

# Among those listed so far, 7 contain bromine:
Rango-impB inh	Rango dissoc inh	miR-21 reporter	GLA inh pH 4.5	structure
2.8%	12%	-16%	-8	Cc1ccc(Nc2nnc(SCC(=O)c3ccc(Br)s3)s2)c(C)c1
-4.8%	27%	-38%	2	O=C(NCc1ccco1)Nc1ccc(Br)cc1
0.1%	-17%	.	.	Cc1cc(NC(=O)COC(=O)CNS(=O)(=O)c2c(F)cc(F)cc2Br)no1
-0.6%	-10%	-55%	-2	COc1ccc(-c2nc(-c3ccc(Br)o3)no2)cc1
-3.0%	-1%	-7%	2	O=C(/C=C/c1cccc(Br)c1)Nc1nn[nH]n1
0.0%	-7%	1%	6	CC1(C)Cc2c(cnn2-c2ccccc2)-c2c1c1ccccc1n2CC(O)CBr (stereo not drawn)
0.3%	3%	-67%	3	C=CCNC(=S)NNC(=O)COc1ccc2cc(Br)ccc2c1

# New compounds follow.
Rango-impB inh	Rango dissoc inh	miR-21 reporter	GLA inh pH 4.5	structure
0.7%	0%	.	.	Cc1cccc(NC(=O)C(C)Sc2nnc(-c3cccnc3)o2)c1 (stereo not drawn)
0.2%	3%	-11%	4	CC1CC(=O)C=C(O)C1C(=O)OC(C)(C)C (stereo not drawn)
?	?	.	6	COC(=O)CCC(=O)OC1(C)C(=O)C2=CN(Cc3ccc4c(c3)OCO4)C(c3ccc(OC)cc3)=CC2=C(Br)C1=O (stereo not drawn)
0.4%	0%	0%	-12	CCOC(=O)N1CCC(NC(=O)c2cc3c(-c4ccc(OC)c(OC)c4)nn(C)c3s2)CC1
-1.2%	-2%	3%	.	CC(=O)N(C)c1ccc(NC(=O)CCN2C(=O)c3ccccc3C2=O)cc1
0.3%	-5%	-2%	13	O=C(Nc1ccc2c(c1)OCO2)c1ccc(NC2CC2)c([N+](=O)[O-])c1
2.0%	0%	-72%	.	NS(=O)(=O)c1ccc(N/N=C/C=C/c2ccccc2[N+](=O)[O-])cc1
-4.3%	2%	-46%	8	CC(=O)Cc1nsc(Nc2ccc(Cl)cc2)n1
0.5%	4%	3%	.	CC(C)CCNC(=O)c1onc(CSc2nc3ccccc3[nH]2)c1C(=O)NCCC(C)C

# The list is partial; rates above refer to the full screens.
